# Rango release inh – inhibitors of RanGTP-induced Rango-importin beta complex dissociation; O95149+P62826; Biochemical FRET Rango-importin beta, RanGTP-induced dissociation; Potency, µM (titrated, usually from 46.1 µM), for the others: at the top dose activity change, negative = inhibition; hit rate 0.071% among 340,000; active means falling FRET ratio curve, often poorly fitted, with flat reads before Ran was added; inconclusive means other falling curves, or compound fluorescence or quenching; inactive means flat or rising ratio curve;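 also: potency is read from the fitted curve at half-maximal effect; % of control where 0% means no effect; nearly all actives have a fitted effect of over 45% in size; -100% = wells without RanGTP and RCC1; the record marks most hits as doubtful in a second field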
#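 Rango/importin beta premix (0.1/0.25 uM final), PBS + 1 mM DTT + 0.02% Tween-20 + 0.1% BSA; cpd 5 min RT; FRET pre-read; + RanGTP-RCC1 (0.6 uM Ran, 2 mM GTP, 0.2 uM RCC1); 45 min RT; FRET post-read, ex 430, em 486/530 nm.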
# Rango complex inh – Rango-importin beta binding inhibition; Q14974; Rango CFP/YFP FRET sensor + importin beta, 45 min; Potency, µM (titrated, usually from 92.2 µM), for inactives: top-dose inhibition of complex formation; hit rate 0.031% among 340,000; AID 540263; active = rising FRET ratio curve, often small or poorly fitted; inconclusive = mostly compound fluorescence or quenching in the first reads; inactive = flat curves in all reads;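 also: potency is read from the fitted curve at half-maximal effect; 0% = DMSO wells and 100% = buffer wells lacking importin beta; nearly all actives have a fitted effect of over 15% in size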
#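 Inhibition scored from the CFP 486 nm/YFP 530 nm FRET ratio 45 min after adding 0.125 microM importin beta to 50 nM Rango biosensor preincubated 5 min with compound (room temperature, PBS with DTT, Tween-20, BSA). No-importin wells as positive control.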
# GLA inh pH 4.5 – blocks human alpha-galactosidase A at pH 4.5. P06280. purified enzyme, 4-MU-alpha-Gal fluorescence, pH 4.5. activity change, negative = inhibition, % at 105 µM. 230,000 tested, under 10 active; inconclusive = small, poorly fitted or top-dose-only inhibition, or a rising curve; inactive = flat fitted curve, though single readings scatter; no compound was filed as active;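 also: 0% = full activity with enzyme and -100% = basal without enzyme; dose as in the result columns while the protocol names 77 µM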
# Target sequence (P06280 whole entry, looked up): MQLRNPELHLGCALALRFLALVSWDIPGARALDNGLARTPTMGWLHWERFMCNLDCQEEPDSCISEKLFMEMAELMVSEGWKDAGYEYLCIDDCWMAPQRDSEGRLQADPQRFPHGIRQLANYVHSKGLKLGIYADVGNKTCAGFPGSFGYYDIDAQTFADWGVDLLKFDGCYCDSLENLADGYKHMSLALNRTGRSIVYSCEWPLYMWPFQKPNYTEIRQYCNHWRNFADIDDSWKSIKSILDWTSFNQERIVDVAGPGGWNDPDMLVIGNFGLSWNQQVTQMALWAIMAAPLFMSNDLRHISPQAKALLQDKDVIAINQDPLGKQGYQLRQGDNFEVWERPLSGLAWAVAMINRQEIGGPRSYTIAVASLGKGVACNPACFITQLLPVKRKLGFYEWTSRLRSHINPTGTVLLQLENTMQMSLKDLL
# miR-21 FLuc – miR-21 reporter, rising signal. HeLa miR-21 FLuc reporter, luciferase, 48 h. Potency, µM (series often up to 38.3 µM), for the others: top-dose reporter change, positive = more light. 340,000 tested, under 10 active. AID 2288; active = well fitted rising curve with a large enough effect; inconclusive = small, poorly fitted or top-dose-only effect; inactive = no such curve, though single readings can be large or run the other way;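 also: % of control where 0% means no effect; miR-21 action dims this reporter so a rising signal means less miR-21 action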
#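 HeLa cells endogenously expressing miR-21, stably carrying CMV-driven firefly luciferase with a downstream miR-21 binding site, 2000 cells/well. Titrations up to approximately 40 uM, 48 hours; luciferase luminescence read.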
# An asterisk follows results filed as active; ? = inconclusive; . = no result given; & = joins results of further samples; [ ] = remark or other dose. Only part of the results is shown, so the mix of outcomes need not match the whole.
SMILES,Rango release inh,Rango complex inh,GLA inh pH 4.5,miR-21 FLuc
CN(C)C(CNC(=O)c1ccc(NS(=O)(=O)c2ccc(F)c(F)c2)cc1)c1ccccc1 (stereo not given),11%,-4.3%,.,.
NC(N)=NC(N)=Nc1ccc(O)cc1,?,0.3%,-15,3%
COC(=O)C1=C(C)N=C2SC(C)C(=O)N2C1/C=C/c1ccccc1 (stereo not given),12%,-0.1%,2,-2%
CCOC(=O)c1ccc(NC(=O)CN2C(=O)CSC2=O)cc1,4%,-0.2%,-3,-10%
CC1CCN(C(=O)c2ccc(S(=O)(=O)NCc3ccco3)cc2)CC1,30%,-0.3%,.,0%
O=C(Cn1ccc(NC(=O)OCc2ccccc2)nc1=O)NCc1ccc2c(c1)OCO2,-3%,2.0%,.,.
COc1cc(/C=C/C(=O)O)ccc1OCc1ccc([N+](=O)[O-])cc1,1%,-5.4%,-3,-1%
COc1ccc(N2CCN(C(=O)COc3ccc4ccccc4c3)CC2)cc1,-11%,0.3%,5,0%
Cc1nn(CC(=O)Nc2cccnc2)c(C)c1[N+](=O)[O-],-14%,-3.9%,3,1%
Cc1cc(NC(=O)c2ccc(F)cc2)n(-c2ccccc2)n1,9%,-0.3%,.,-12%
COc1ccc(NC(=O)CN(C)C(=O)CN2C(=O)NC3(CCCCC3)C2=O)cc1,-5%,-4.8%,.,.
CCOC(=O)C1=C(C)N=C2SCCC(=O)N2C1c1ccc(OC)cc1 (stereo not given),.,.,-5,-5%
COC(=O)[C@H](CC(C)C)NC(=O)Nc1ccc(S(N)(=O)=O)cc1,1%,-0.1%,3,-4%
Cc1nc2ccccc2cc1O,5%,-1.2%,6,-8%
O=C1CCC(C(=O)Nc2ccc([N+](=O)[O-])cc2)N1 (stereo not given),-16%,?,.,.
CC(=O)OCC(=O)[C@H]1CC[C@H]2[C@@H]3CC=C4C[C@@H](O)CC[C@]4(C)[C@H]3CC[C@]12C,-18%,-3.4%,0,-5%
Cc1ccc(C(=O)COC(=O)c2cccs2)cc1,-4%,-2.3%,2,-62%
Cc1ccc(C(=O)OCC(=O)N2C(C)CCCC2C)cc1S(=O)(=O)N1CCCCC1 (stereo not given),13%,-0.2%,.,.
O=C(Nc1cccc(O)c1)c1ccc(C(F)(F)F)cc1,-4%,0.2%,0,-34%
Cc1cc(C)n(C(=O)CNC(=O)CCc2ccccc2)n1,6%,0.3%,4,-1%
CCOC(=O)C1=CN(C)CCC1=O,-8%,1.8%,.,.
Cc1cc(C(=O)NCCN2C(=O)S/C(=C\c3cccs3)C2=O)ccc1[N+](=O)[O-],1%,-0.3%,-22,-7%
CCNC(=S)Nc1cccc([N+](=O)[O-])c1,.,.,0,-2%
CCN(CC)CCCNc1cc(C)nc2cc(-c3cccs3)nn12,-19%,?,-8,-4%
COc1ccc(Nc2nc(N)nc(CSC(=S)N3CCC(C)CC3)n2)cc1,0%,2.7%,7,-34%
CCOc1ccccc1-n1nnnc1SCC(=O)N1CCCC1=O,-24%,-1.4%,.,.
CCn1c(=O)c(C(=O)NCCNCCO)c(O)c2ccccc21,4%,9.0%,-4,1%
Cc1ccc(N2C(=O)CN=C2Nc2nc(C)cc(C)n2)cc1,1%,-2.6%,-2,-8%
Cc1ccc(S(=O)(=O)c2cc3c(=O)n4cccc(C)c4nc3n(CC3CCCO3)c2=N)cc1 (stereo not given),.,.,-1,-5%
CN1CCC(N(C)C(=O)CCc2nc3ccccc3n2-c2ccccc2)CC1,-4%,2.6%,5,-5%
Cn1c(N2CCN(C(c3ccccc3)c3ccccc3)CC2)nc2c1c(=O)[nH]c(=O)n2C,7%,-1.1%,.,12%
Clc1ccc(OCc2cc(-c3ccccc3)no2)cc1Cl,3%,5.3%,-3,-44%
Cn1c(=O)oc2cc(S(=O)(=O)Nc3ccccc3O)ccc21,32%,6.2%,.,8%&11%
Cc1ccccc1NS(=O)(=O)c1ccc2c(c1)NC(=O)CO2,0%,2.0%,-4[21.1 µM],3%
COc1ccc(CCN2CC(C(=O)NCCc3cccnc3)CCC2=O)cc1 (stereo not given),4%,1.6%,.,-3%
CCc1nnc2n1N=C(c1ccc(Cl)cc1)CS2,3%,-2.7%,.,-4%
CCOc1ccccc1CNC(=O)C1CCCN(c2nc3ccccc3o2)C1 (stereo not given),.,.,-9,-4%
CCSc1nc2c(c(-c3ccc(C)o3)c1C#N)CCCC2,1%,-0.1%,-17,-11%
CC(Oc1ccccc1)C(=O)Nc1ccc(F)c(S(=O)(=O)N2CCOCC2)c1 (stereo not given),12%,0.1%,.,.
Cc1cc(C)n2nc(SCC(=O)Nc3ccc(F)c(F)c3F)nc2n1,-7%,0.8%,.,.

# An excerpt from above, limited to Rango complex inh and GLA inh pH 4.5:
smiles | Rango complex inh | GLA inh pH 4.5
Clc1ccc(OCc2cc(-c3ccccc3)no2)cc1Cl | 5.3% | -3
Cn1c(=O)oc2cc(S(=O)(=O)Nc3ccccc3O)ccc21 | 6.2% | .
Cc1ccccc1NS(=O)(=O)c1ccc2c(c1)NC(=O)CO2 | 2.0% | -4[21.1 µM]
COc1ccc(CCN2CC(C(=O)NCCc3cccnc3)CCC2=O)cc1 (stereo not given) | 1.6% | .
CCc1nnc2n1N=C(c1ccc(Cl)cc1)CS2 | -2.7% | .

# (more compounds)
SMILES,Rango release inh,Rango complex inh,GLA inh pH 4.5,miR-21 FLuc
O=S(=O)(c1ccccc1)c1ncc(C(F)(F)F)cc1O,22%,-0.2%,2,-1%
O=C(NCCC(=O)N1CCN(C(=O)c2ccco2)CC1)c1ccccc1Cl,0%,1.2%,.,.
CC(C)=CCN1CCN(Cc2cnc(N3CCOCC3)s2)CC1CCO (stereo not given),18%,-2.3%,2,-75%
CCN(CC(=O)Nc1ccc(NC(C)=O)cc1)C(=O)c1ccccc1SCc1c(C)noc1C,-5%,6.6%,.,.
Cc1cc(NC(=O)CSc2ncccn2)no1,-8%,-3.9%,5,-6%
CC1CCN(CCCn2c(=S)[nH]c3ccccc3c2=O)CC1,-11%,0.8%,1,-3%
CCOC(=O)C1CCN(C(=O)COc2ccc(Cl)cc2C)CC1,5%,-2.5%,4,1%
Cc1ccnc2nc(C(=O)NC3CCCc4ccccc43)nn12 (stereo not given),15%,4.3%,0,1%
O=C(OCc1nnc(-c2ccccc2)o1)c1cc(=O)c2ccccc2o1,4%,4.0%,-1,-19%
Cc1ccc(S(=O)(=O)N2CC[C@@H]2C(=O)O)cc1,4%,0.6%,.,.
Cc1csc(C(C#N)C(=O)c2cc3ccccc3o2)n1 (stereo not given),-13%,-5.4%,-18,-4%
COc1ccccc1N1C(=O)CSC1=NC(=O)c1ccccc1,5%,-0.2%,9,-18%
COc1ccc(NC(=O)c2cc(N3C(=O)C4C5CCC(C5)C4C3=O)ccc2Cl)c(OC)c1 (stereo not given),0%,-2.7%,.,5%
CCCCN1C(=O)CCC(C(=O)O)C1c1ccc([N+](=O)[O-])cc1 (stereo not given),-15%,7.1%,.,-1%
O=C(NCCCN1CCOCC1)c1ccccc1-c1ccccc1,-4%,0.2%,-1,0%
CC(=O)c1c(C)[nH]c(C(=O)N2CCCC(C)C2)c1C (stereo not given),-15%,-1.2%,.,-4%
COc1ccc(C(=O)N(CC2CCCO2)C(C(=O)NC2CCCC2)c2ccc(Cl)cc2)cc1OC (stereo not given),11%,-0.4%,6,1%
COc1cccc(-c2sc3ccc(OC)cc3c2-c2ccc(OCCN(C)C)cc2)c1,11%,1.2%,.,.
O=C(O)c1ccc(F)c(S(=O)(=O)Nc2ccccc2Cl)c1,-20%,1.1%,-8,-3%
O=C(Nc1nnc(C2CC2)s1)c1cc(S(=O)(=O)N2CCN(c3ccccc3)CC2)ccc1Cl,-14%,0.8%,5,0%
Cc1ccc(C)c(Cn2nc(-c3ccccc3)ccc2=O)c1,6%,-1.2%,.,3%
CCCCCC(=O)Nc1ccc2ccccc2c1,16%,0.4%,1,-63%
Cc1cc(OCC(=O)NCc2ccncc2)c2c(C)cc(=O)oc2c1,-20%,-0.5%,.,-1%
c1ccc2nc(N3CCCC3)c(N3CCCCC3)nc2c1,-14%,-0.1%,.,.
CCOc1ncccc1C(=O)Nc1cccc(-c2nnc3n2CCCCC3)c1,-8%,3.7%,-3,3%
CCCCC(=O)Nc1ccc(C(=O)Nc2cc(C(F)(F)F)ccc2Cl)cc1,10%,0.4%,-4,-5%
Cc1c(C(=O)N(Cc2ccccc2)Cc2cccnc2)cnn1-c1ccc(F)cc1,-13%,?,-1,1%
C/C(=N\NC(=O)Cc1cccc2ccccc12)c1ccncc1,-6%,2.0%,-3,1%
CCc1nn(C(C)C(=O)NCc2cccc(Cl)c2)c(=O)c2cc3occc3n12 (stereo not given),-2%,5.9%,.,-6%
CCc1ccc(OCc2nnc(NC(=O)c3cccs3)s2)cc1,10%,-2.7%,2,-1%

# The closing two compounds of the part before are carried over, then new ones follow.
SMILES,Rango release inh,Rango complex inh,GLA inh pH 4.5,miR-21 FLuc
CCc1nn(C(C)C(=O)NCc2cccc(Cl)c2)c(=O)c2cc3occc3n12 (stereo not given),-2%,5.9%,.,-6%
CCc1ccc(OCc2nnc(NC(=O)c3cccs3)s2)cc1,10%,-2.7%,2,-1%
COc1cc(Cl)ccc1NC(=S)N(CCN1CCOCC1)C1CCN(C(C)=O)CC1,-1%,2.8%,12,0%
O=C1SC(SC(=Nc2ccccc2)Nc2ccccc2)C(=O)N1c1ccccc1 (stereo not given),0%&1%,-1.2%&4.5%,0,-55%
Cc1ccc(C(=O)/C=C/Nc2ccc3c(c2)OCO3)cc1,?,?,-13,-51%
CCCc1nnc(SCC(=O)Nc2nc(C)cs2)n1CCOC,3%,1.0%,.,-21%
COc1ccc2sc(SCCCS(=O)(=O)O)[n+](CCCS(=O)(=O)[O-])c2c1,1%,-2.7%,2,-1%
O=C(CCl)NC(Cc1ccccc1)C(=O)OCC(=O)c1ccc(-c2ccccc2)cc1 (stereo not given),3%,-4.1%,.,.
Cc1cc(C(=O)OCC(=O)Nc2cc(S(=O)(=O)N3CCOCC3)ccc2Cl)c(C)o1,-19%,-1.4%,2,-2%
Nc1cc(=O)[nH]c(=O)n1CCc1ccccc1,-17%,-4.2%,.,3%
Cc1nc2ccccc2n1CC(O)COc1ccc(Br)cc1 (stereo not given),-2%,-1.9%,0,16%
O=C(CN1CCN(Cc2ccccc2Cl)C1=O)NC1CCCCCC1,1%,0.0%,1,-30%
COc1ccc(N(C(=O)Cn2nnc3ccccc32)C2(C(=O)NC3CCCC3)CCCCC2)cc1,-4%,-3.7%,-1,5%
CC(C)(C)n1nnnc1C(c1cccnc1)N1CCN(c2cccc(C(F)(F)F)c2)CC1 (stereo not given),-2%,?,0,0%
O=C1CN(C(=O)/C=C/c2ccccc2F)c2ccccc2N1,28%,2.1%,2,-41%
C[n+]1cc[nH]c1SCC(=O)c1ccccc1,1%,-1.0%,1,-54%
Cc1c(CC(=O)NCCCCCC(=O)O)c(=O)oc2c(C)c3oc4c(c3cc12)CCCC4,?,?,.,4%
Cc1cc2ncc(S(=O)(=O)C(C)(C)C)c(N)n2n1,10%,3.4%,4,0%
COc1cccc(CNC(=O)[C@H](CCSC)NC(=O)N2CCn3c2nc2ccccc23)c1,19%,-3.9%,.,0%
O=C(COC(=O)c1ccccc1C(=O)N1CCN(c2ccccc2)CC1)NCc1ccccc1,4%,8.7%,8,-1%
Cc1ccc(OCC(=O)Nc2ccccc2C(=O)NC2CC2)cc1,-2%,1.8%,.,.
CC(C)NC(=O)c1c2c(nc3ccccc13)CCCC2,-11%,3.0%,1,-6%
COc1ccc(C(O)(c2ccccc2)C(C(=O)O)c2ccccc2)cc1 (stereo not given),9%,4.2%,.,.
O=C(CN1C(=O)S/C(=C\c2ccccc2F)C1=O)NC1C=CS(=O)(=O)C1 (stereo not given),-14%,-1.0%,.,-1%
Cc1ccccc1OCC(=O)NC(=S)Nc1ccc(N2CCCC2)cc1,9%,3.0%,-5,4%
Cn1c(Nc2ccc(F)cc2)nc2ccccc21,1%,2.0%,.,-21%
CC(CN1CCOCC1)OC(=O)c1ccc2c(c1)OCCO2 (stereo not given),-3%,-3.4%,1,-35%
COc1ccc(/C=N/NC(=O)c2ccc(NS(=O)(=O)c3cccs3)cc2)cc1,17%,0.0%,.,.
Cc1csc(NC(=O)c2ccc(Br)s2)n1,-13%,-1.8%,.,-9%

# Screening data: PubChem BioAssay, National Center for Advancing Translational Sciences (NCATS)
